# BJeLR viability – compounds reducing viability of BJeLR cells. 30,000 compounds, 0.64% hits. AID 2275. viability loss activity score, % (concentration not given with the values). BJeLR fibroblasts viability, CellTiterGlo ATP luminescence, 48 h; HRASV12, hTERT and SV40 LT/ST transformed; in the data active = viability loss activity score above about 50%; about a fifth of its hits are not listed in these tables;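 note: higher score means fewer live cells and less ATP luminescence; stock transfer was 50 or 100 nL into about 30 µL; 0% = vehicle wells and 100% = a reference killing control; one replicate is shown; the record names a cut of 85%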
# A1 inhib – A1 inhibition | 21,000 compounds, 0.51% hits | MEF A1-2A-BIM cells, caspase-Glo luminescence, 3 h; percent of clofoctol signal, DMSO as zero | caspase activation, % (concentration not given with the values);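 active = most replicate scores above 10, or exactly half above 10 with mean activity above 10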;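 note: effector caspase 3 and 7 activity cleaving a DEVD luciferin substrate; 50 nL library stock added to about 30 µL; numbers are from one replicate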
# * marks the source's active call; other numbers are inactive results; x = not tested or not shown. Not all compounds are listed, so the mix of outcomes need not match the whole.
canonical_smiles | BJeLR viability | A1 inhib
COc1cccc(/C=C2/NC(=O)N(c3ccccc3)C2=O)c1 | -1.3 | x
N[C@@H](Cc1cc(I)c(Oc2cc(I)c(O)c(I)c2)c(I)c1)C(=O)O | -0.7 | -0.3
COC(=O)CNC(=O)c1cccnc1Sc1cc(OC)ccc1OC | -5.0 | 0.7
CC1CN(c2nc3ccccc3nc2SCC(=O)Nc2ccccc2)CC(C)O1 (stereo not given) | -2.5 | -0.4
Cc1nc(C(F)(F)F)ccc1C(=O)Oc1ccccc1N1CCCCC1 | -1.9 | -0.3
CC(C)NC(=O)N(C)C[C@H]1Oc2c(NC(=O)Nc3ccc(F)cc3)cccc2C(=O)N([C@@H](C)CO)C[C@@H]1C | -3.4 | x
CC(C)=CCc1c(O)ccc2c1OC(c1ccc(O)c(O)c1)CC2=O (stereo not given) | -1.5 | -1.3
Cc1cc2c(cc1S(=O)(=O)NC1CCCC(C)C1C)OCC(=O)N2 (stereo not given) | 4.2 | -0.3
CCn1cc(CCCC(=O)N2CCc3ccccc32)c2ccccc21 | 0.0 | 0.2
CC(=O)Nc1ccc(NC(=O)c2cccc(C(=O)OC(C)C)n2)cc1 | 2.0 | -0.1
O=C(CC1CCCCCCCCCCC1)N1CCOCC1 | 14 | 0.2
Cc1ccsc1-c1nc(CSCC(=O)O)c(C)o1 | 2.2 | 0.5
CN(C)CCNC(=O)c1cc2c(s1)-c1ccccc1S(=O)(=O)C2 | -3.7 | 1.3
COC(=O)Cn1c(=O)c2c(nc3n2CCN3c2ccccc2)n(C)c1=O | -3.2 | 37*
CCn1c(C(=O)N2CCCC(C(=O)NC3CCCC3)C2)cc2sccc21 (stereo not given) | 2.8 | 0.6
C[C@H](CO)N1C[C@H](C)[C@@H](CN(C)Cc2ccc3c(c2)OCO3)Oc2ccc(NC(=O)Nc3ccc4c(c3)OCO4)cc2C1=O | 3.3 | -0.8
C[C@H](CO)N1C[C@H](C)[C@H](CN(C)Cc2ccc(C(F)(F)F)cc2)Oc2c(cccc2N(C)C)C1=O | 4.0 | x
C[C@H]1CN([C@@H](C)CO)C(=O)c2cccc(NC(=O)Nc3cccc4ccccc34)c2O[C@H]1CN(C)Cc1ccc(Oc2ccccc2)cc1 | -1.1 | x
O=C(CCCOc1ccc(Cl)cc1)NCC1CCCO1 (stereo not given) | -4.5 | x
COc1ccc(CCNC(=O)c2cc3ccccc3s2)cc1OC | -8.5 | x
Cc1ccc(S(=O)(=O)N(C)C[C@H]2Oc3c(NS(=O)(=O)c4cn(C)cn4)cccc3C(=O)N([C@@H](C)CO)C[C@H]2C)cc1 | 1.1 | x
CC(C)NC(=O)Nc1cccc2c1O[C@@H](CN(C)C(=O)Nc1ccc3c(c1)OCO3)[C@@H](C)CN([C@H](C)CO)C2=O | -0.1 | x
O=C(Cn1ncc2c3ccccc3n(Cc3ccccc3)c2c1=O)N1CCOCC1 | -4.2 | -0.1
CCC1SC2=NCN(c3ccccc3)CN2C1=O (stereo not given) | -3.0 | 0.3
CC1=C(C(=O)OCc2ccccc2)C(c2ccccc2)NC(=O)N1C (stereo not given) | -4.4 | -0.4
CSC(=O)OCC1=C[C@H](O)[C@@H]2C(C(=O)O)=CO[C@@H](OC3OC(CO)C(O)C(O)C3O)[C@H]12 (stereo not given in full) | 2.9 | -0.5
C[C@@H]1CN([C@H](C)CO)C(=O)c2cc(NC(=O)c3ccncc3)ccc2O[C@H]1CN(C)Cc1ccc(-c2ccccc2)cc1 | 4.8 | 0.7
COc1ccc(-c2coc3c(C)c4oc(=O)c5c(c4cc23)CCCC5)cc1F | 1.5 | -0.3
Cc1cc(O)cc2c(=O)oc(CC(C)O)cc12 (stereo not given) | -10 | 0.2
C=CC(C)(C)[C@@]12C[C@H]3C(=O)Nc4ccccc4C(=O)N3[C@@H]1Nc1ccccc12 | 9.7 | -0.1
C=CCn1c(=N)c(C(=O)OC)cc2c(=O)n3cccc(C)c3nc21 | -4.4 | x
Cc1nc(-n2nnc3cc(C)c(C)cc32)c2c3c(sc2n1)CCCC3 | 1.3 | -0.3
NC(=O)OCC(COC(N)=O)c1ccccc1 | -0.4 | -0.3
C[C@H](CO)N1C[C@H](C)[C@H](CN(C)C(=O)Nc2cccc3ccccc23)Oc2ccc(NC(=O)c3ccncc3)cc2C1=O | -2.4 | 0.2
C[C@H](CO)N1C[C@H](C)[C@H](CN(C)Cc2ccc(Oc3ccccc3)cc2)Oc2ccc(NS(=O)(=O)c3cccs3)cc2C1=O | 5.5 | -0.5
C[C@H]1CN([C@@H](C)CO)C(=O)c2cc(NC(=O)Nc3cccc4ccccc34)ccc2O[C@H]1CN(C)S(=O)(=O)c1cccs1 | 3.4 | 0.4
CCn1cc(C(=O)N(C)Cc2ccccc2)c2cc(OC)c(OC)cc2c1=O | 0.7 | x
CSC1=NCCN1C(=O)COc1ccccc1 | -1.8 | x
Cc1noc(C)c1NC(=O)Nc1ccc2c(c1)C(=O)N([C@H](C)CO)C[C@H](C)[C@@H](CN(C)Cc1ccc(Oc3ccccc3)cc1)O2 | 1.6 | 0.2
COc1ccc(-c2cc(C(=O)Nc3ccc(F)cc3)c(C(F)(F)F)o2)cc1 | -4.3 | x

# Complete entries as entered above. Values in the order: BJeLR viability, A1 inhib
# O=C(Cn1ncc2c3ccccc3n(Cc3ccccc3)c2c1=O)N1CCOCC1 as listed: -4.2, -0.1
# O=C(CCCOc1ccc(Cl)cc1)NCC1CCCO1 (stereo not given) as listed: -4.5, x
# CCn1c(C(=O)N2CCCC(C(=O)NC3CCCC3)C2)cc2sccc21 (stereo not given) as listed: 2.8, 0.6
# COc1ccc(-c2cc(C(=O)Nc3ccc(F)cc3)c(C(F)(F)F)o2)cc1 as listed: -4.3, x
# CC(=O)Nc1ccc(NC(=O)c2cccc(C(=O)OC(C)C)n2)cc1 as listed: 2.0, -0.1

# (cont.)
canonical_smiles | BJeLR viability | A1 inhib
CC(=O)N[C@@H](C(=O)O[C@H]1CCC(C)(C)[C@@H]2CCC3=C(COC3=O)[C@@]12C)C(C)C | -3.8 | -0.1
N#Cc1cnc(SCC(=O)NC(=O)Nc2ccccc2)nc1N | -8.7 | -0.9
CC(=O)Oc1cc(C(C)C)c(OCCN(C)C)cc1C | 4.4 | 0.7
COc1cc2c(cc1OC)C1(CCCC1)CN(C(=O)c1cc(Br)ccc1OC)C2 | -6.5 | -0.7
CC(C)(C)c1ccc2c(c1)c1c3n2CCN(CCC#N)C3CCC1 (stereo not given) | -2.7 | -0.5
CNC(=O)c1ccc2snnc2c1 | -2.2 | -0.2
C[C@@H]1CN([C@@H](C)CO)C(=O)c2cccc(NS(=O)(=O)c3ccc(Cl)cc3)c2O[C@H]1CN(C)C | 1.2 | x
CCCc1nc(C)c2c(=O)[nH]c(-c3cc(S(=O)(=O)N4CCN(CC)CC4)ccc3OCC)nn12 | -10 | -0.1
CCOC(=O)CC1=NN=C(N)SC1 | 0.4 | 1.4
CCOc1ccc(-c2nc(C#N)c(NCC(C)C)o2)cc1 | -3.3 | x
Cc1cccc(NC(=O)C2Sc3nnc(-c4ccccc4)n3NC2c2ccccc2)c1 (stereo not given) | -3.2 | 0.6
Cc1ccc(NC(=S)NCC2COc3ccccc3O2)cc1 (stereo not given) | -2.5 | 0.3
C[C@H]1CN([C@@H](C)CO)C(=O)c2cccc(NC(=O)NC3CCCCC3)c2O[C@H]1CN(C)C(=O)Nc1ccccc1 | -3.8 | x
C[C@@H]1CN([C@@H](C)CO)C(=O)c2cccc(NS(=O)(=O)c3cccs3)c2O[C@@H]1CN(C)CC1CC1 | 4.4 | x
COC(=O)C1=CO[C@@H](O[C@@H]2O[C@H](CO)[C@@H](O)[C@H](O)[C@H]2O)[C@@H]2[C@@](C)(O)[C@@H](O)C[C@]12O | -18 | 0.2
CC(C)(C)C1=Nn2c(nnc2-c2ccccc2)SC1 | 5.5 | -0.5
Cc1ccccc1NC(=O)C(NS(=O)(=O)c1ccc2c(c1)c(=O)n(C)c(=O)n2C)c1ccccc1 (stereo not given) | 8.0 | x
Cc1ccc(CSc2nc3ccccc3c(=O)n2-c2ccc(C(=O)N3CCOCC3)cc2)cc1 | -5.5 | -0.6
CN1C2CCC1CC(NC(=O)Cc1ccccc1F)C2 (stereo not given) | -8.4 | 0.6
Cc1cc(=S)nc(-c2ccccn2)[nH]1 | 5.7 | -1.7
Cc1cc(C)c(C#N)c(SCC(=O)C(C)(C)C)n1 | 0.4 | 0.5
Nc1cc(-c2ccccc2)c2ccccc2n1 | 4.1 | -0.5
Cc1ccc(-c2ccc(=O)n(CCC(=O)NCCN3C(C)CCCC3C)n2)cc1 (stereo not given) | 2.3 | 0.4
C[C@@H]1CN([C@@H](C)CO)C(=O)c2cccc(N(C)C)c2O[C@H]1CN(C)C(=O)Nc1ccc(F)cc1 | -6.0 | x
CCn1cc(C(=O)O)c(=O)c2cc(S(=O)(=O)N(C)C)ccc21 | 11 | -0.7
Cc1ccc(S(=O)(=O)N(C)C[C@@H]2Oc3c(NC(=O)C4CCOCC4)cccc3C(=O)N([C@H](C)CO)C[C@H]2C)cc1 | -2.1 | x
C=CCn1c(N)c(C(=O)NCc2ccccc2)sc1=S | 8.0 | 0.2
C[C@@H]1CN([C@H](C)CO)C(=O)c2cc(NC(=O)Cn3cnnn3)ccc2O[C@@H]1CN(C)C | -0.7 | 1.2
COc1ccc(S(=O)(=O)Nc2cccc3c2O[C@H](CN(C)C(=O)Nc2c(C)noc2C)[C@H](C)CN([C@@H](C)CO)C3=O)cc1 | -1.0 | x
C[C@H]1CN([C@@H](C)CO)C(=O)c2cc(NS(=O)(=O)c3cn(C)cn3)ccc2O[C@H]1CN(C)Cc1ccc(C(=O)Nc2ccccc2N)cc1 | -1.6 | x
Cc1ccnc(N2C(=O)c3ccccc3C2Nc2ccc(Br)c(C)c2)c1 (stereo not given) | -0.7 | x
Cn1nnc(-c2ccc(OCc3ccccc3F)cc2)n1 | 26 | -6.3
C[C@H]1CN([C@@H](C)CO)C(=O)c2cc(NC(=O)Cc3ccccc3)ccc2O[C@H]1CN(C)S(=O)(=O)c1ccc(F)cc1 | -0.8 | 1.3
COc1ccc(CN(C)C[C@H]2Oc3ccc(NC(=O)Cn4cnnn4)cc3C(=O)N([C@@H](C)CO)C[C@@H]2C)cc1 | 3.8 | 1.3
COc1ccc(C(=O)NCc2ccc3c(c2)CCO3)cc1 | -1.5 | -0.8
Cc1ccc(S(=O)(=O)N(C)C[C@H]2Oc3c(NC(=O)Nc4c(C)noc4C)cccc3C(=O)N([C@H](C)CO)C[C@H]2C)cc1 | -3.6 | x
CCOC(=O)C(C)Sc1ncnc2c1oc1ccccc12 (stereo not given) | -0.8 | x
C[C@H]1CN([C@@H](C)CO)C(=O)c2cc(NC(=O)Nc3ccccc3)ccc2O[C@@H]1CN(C)CC1CCCCC1 | 1.8 | 0.0
C[C@H](CO)N1C[C@H](C)[C@@H](CN(C)Cc2ccc(Oc3ccccc3)cc2)Oc2ccc(NC(=O)C3CC3)cc2C1=O | -0.7 | -0.1
Cc1cc(C)cc(NC(=O)CSCc2cnn(-c3ccccc3)c2-n2cccc2)c1 | 1.6 | -0.7

# More records follow.
molecule	BJeLR viability	A1 inhib
CN(Cc1nc(-c2ccccc2)cs1)C(=O)NC1(c2ccccc2)CC1	2.1	-0.1
COc1ccc(CN(C)C[C@@H]2Oc3c(NS(=O)(=O)c4ccc(OC)cc4)cccc3C(=O)N([C@@H](C)CO)C[C@H]2C)cc1	0.3	x
CC(C)NC(=O)N(C)C[C@@H]1Oc2c(NS(=O)(=O)c3ccccc3)cccc2C(=O)N([C@H](C)CO)C[C@H]1C	2.2	x
O=C(Nc1cccc(C(F)(F)F)c1)N1CCOC12CCCCC2	-0.1	0.0
CC1=C(C#N)C(c2ccccc2)C(C#N)=C(C)N1	-4.9	0.3
C[C@@H]1CN([C@@H](C)CO)C(=O)c2cccc(NS(C)(=O)=O)c2O[C@@H]1CN(C)S(=O)(=O)c1cccs1	0.8	x
O=C(Oc1ccc(OC(=O)c2ccccc2)cc1)c1ccccc1	-0.8	-5.4
O=C(Nc1ccc(N2CCOCC2)cc1Cl)C1CCN(C(=O)OCc2ccccc2)CC1	3.1	0.8
C=CCn1c(=S)n(CC=C)c2ccccc21	-2.6	-0.3
COc1ccc(S(=O)(=O)Nc2ccc3c(c2)C(=O)N([C@@H](C)CO)C[C@@H](C)[C@H](CN(C)S(=O)(=O)c2ccc(OC)cc2)O3)cc1	1.7	-0.3
Cc1ccc(COc2ccc(/C=C3/C(=N)N4C=CSC4=NC3=O)cc2Br)cc1	-3.4	-1.1
N=c1nc(-c2ccccc2)ccn1O	4.4	-0.5
N#C/C(=C\c1ccsc1)S(=O)(=O)c1ccc(C(F)(F)F)cn1	-3.4	0.9
Fc1ccc(Cn2cccc2C2=NC(c3ccccc3)CO2)cc1 (stereo not given)	-1.6	x
COc1ccc(OC)c(C2C(C(=O)Nc3ccccn3)=C(C)NC3=C2C(=O)CCC3)c1 (stereo not given)	-3.6	0.8
Cc1cc(/C=C2\CCC(C3CCCC3)C2=O)c(C)n1-c1ccccc1 (stereo not given)	2.4	x
NC(Cc1ccccc1F)C(=O)O (stereo not given)	21	0.6
FC(F)(F)c1cccc(NC(=S)Nc2cccnc2N2CCC(C(F)(F)F)CC2)c1	-3.0	0.3
O=C(Nc1cc(C(F)(F)F)ccc1N1CCc2ccccc2C1)c1ccccc1	0.1	x
C[C@@H]1CN([C@H](C)CO)C(=O)c2cccc(NC(=O)Nc3ccccc3)c2O[C@@H]1CN(C)S(=O)(=O)c1ccccc1	-10	x

# An excerpt from above in order of the A1 inhib value, lowest first.
canonical_smiles	A1 inhib
NC(=O)OCC(COC(N)=O)c1ccccc1	-0.3
Cc1ccsc1-c1nc(CSCC(=O)O)c(C)o1	0.5
CC(=O)Oc1cc(C(C)C)c(OCCN(C)C)cc1C	0.7
